eIF4H inh = inhibitors of RNA binding by human eIF4H | Q15056 | eIF4H fluorescence polarization binding assay | inhibition, % at 35 µM | 290,000 compounds, 0.94% hits | AID 2012;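 active means 50% or more with normal probe brightness, or confirmed in later tests; inconclusive means above 50% with abnormal brightness, or retests that disagree; inactive means below 50% or failed in later tests; about a fifth of its hits are not listed in these tables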;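 further: calls also rest on retests at 20 µM and on dose response follow-up; 0% = protein and probe with vehicle and 100% = probe without protein; strong numbers were not always called active; many hits fall short of the cut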
UUG fidelity = yeast start codon fidelity modulation; activity score, % at 18.7 µM; 350,000 compounds, 0.13% hits; S. cerevisiae UUG-firefly luciferase reporter, luminescence/redox ratio; AID 602363;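 active means replicate mean at a twofold rise or more, about +100% in these data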;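 further: firefly luciferase made from a UUG start codon reports start codon fidelity; reporter light over untreated wells divided by growth signal over untreated wells; some hits fall short of that in this replicate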
PABP polyA inh = PABP-poly(A) binding inhibition | P11940 | PABP-poly(A) RNA binding, fluorescence polarization | inhibition, % at 35 µM | 290,000 compounds, 1% hits | AID 2014;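 active means 50% or more with normal probe brightness, or confirmed in later tests; inconclusive means above 50% with abnormal brightness, or retests that disagree; inactive means below 50% or failed in later tests; about a fifth of its hits are not listed in these tables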;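 further: calls also rest on retests at 20 µM and on dose response follow-up; controls were probe without protein and protein plus probe with vehicle; some compounds called inactive have numbers as strong as hits; many hits fall short of the cut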
Rce1 inh = inhibitors of yeast Ras-converting enzyme | Q03530 | AID 2563 | calls only | yeast membranes, quenched prenylated peptide cleavage fluorescence | 290,000 compounds, 0.27% hits;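 active means fall in fluorescence gain of 50% or more versus controls, with final raw signal at or below 3038400; inconclusive means same 50% fall but final raw signal above 3038400; inactive means fall in fluorescence gain under 50%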;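 further: plate controls were neutral control wells for no effect and wells lacking membranes for full effect; tested at 10 µM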
Target sequence (Q03530 whole entry, looked up): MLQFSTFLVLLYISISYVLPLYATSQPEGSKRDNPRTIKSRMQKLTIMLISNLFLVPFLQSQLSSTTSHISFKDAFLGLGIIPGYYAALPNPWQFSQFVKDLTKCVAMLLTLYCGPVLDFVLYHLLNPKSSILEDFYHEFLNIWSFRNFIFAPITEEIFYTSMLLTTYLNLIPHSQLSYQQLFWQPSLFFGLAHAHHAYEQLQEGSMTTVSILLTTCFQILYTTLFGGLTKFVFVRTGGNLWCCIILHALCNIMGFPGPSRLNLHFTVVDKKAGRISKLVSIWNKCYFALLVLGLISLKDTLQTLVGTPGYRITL
HIV Env fusion = blocks HIV Env-driven cell-cell fusion. HeLa-JRFL Env/CEM21 cell fusion, luciferase. inhibition, % at 12.3 µM. 360,000 compounds, 1.1% hits. AID 651610;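 active means mean replicate inhibition score of at least 50 and every replicate individually at or above 50; inconclusive means only one of the two criteria met; inactive means mean below 50 and not all replicates reaching 50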;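 further: 0% = plate neutral controls and 100% = maraviroc near 300 nM; one replicate is shown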
MT1-MMP act inh = MT1-MMP (human) activation inhibition; HT1080 RFP-PRO-GFP cells, GFP/RFP ratio fluorescence, overnight; percent of plate control window, DMSO zero; GFP/RFP ratio change, % at 20 µM; 360,000 compounds, 0.061% hits;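 active means GFP/RFP ratio change of at least 30% with cell ATP level not reduced by more than half and red fluorescence within 50% of control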; further: strong numbers were not always called active
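Read-out: GFP/RFP fluorescence ratio; Test system: RFP-PRO-GFP reporter HT1080 cells; Compound dosing: single-point 20 µM compound, 1% DMSO; Times: overnight compound exposure at 37 °C.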
CSC inhib = blocks cancer stem cells; inhibition, % at 7.5 µM; cancer stem cell-like cells viability, luminescence; 300,000 compounds, 1.1% hits;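 active means mean at 75% or more and at least half the replicates too; inconclusive means mean and replicates disagree; tested in HMLE shEcad cells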;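 further: 0% = median of negative and 100% = median of positive control wells; the first replicate is given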
eIF4H inh retest = second read-out of eIF4H inh, no call of its own (marks repeat the call); inhibition, %; compound at 20 µM; confirmation average;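 mean of two retest wells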
PABP polyA inh retest = further read-out of PABP polyA inh, marked with its call; inhibition, %; compound at 20 µM; confirmation repeats;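 mean of two retest wells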
MT1-MMP act inh RFP = further read-out of MT1-MMP act inh, marked with its call; RFP signal change, %; measured here: RFP expression control read;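 0 = vehicle wells; hits needed this value within 50% of zero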
Active calls of the source: *; i = inactive; ? = inconclusive; . = not tested or not shown; & = joins results of further samples.

SMILES	eIF4H inh	UUG fidelity	PABP polyA inh	Rce1 inh	HIV Env fusion	MT1-MMP act inh	MT1-MMP act inh RFP	CSC inhib	others
O=C(O)/C=C/C(=O)Nc1ccc2nccnc2c1	-7	.	-9	i	2	2	0	-11
Cc1nn(CCCC(=O)NC(C)c2ccccc2)c(=O)c2nn(-c3ccccc3)c(C)c12 (stereo unspecified)	-8	-25	2	i	-5	5	-3	-13
O=C(c1ccc([N+](=O)[O-])cc1)N(Cc1ccc(Cl)cc1)N1C(=O)CCCC1=O	4	-17	-8	i	-33	7	0	-23
COc1ccc(CN(C(=S)Nc2ccccc2)C2CC(=O)N(c3ccc(F)cc3)C2=O)cc1 (stereo unspecified)	-4	-6	-5	i	.	3	-7	2
COc1ccc(NC(=O)c2ccc(Cl)nc2)cc1S(=O)(=O)N1CCCCC1	2	.	1	i	13	3	-8	6
O=C(Nc1ccccc1)Nc1nc(-c2ccc(F)c(F)c2)cs1	44	-6	16	i	.	1	-7	14
COc1cc(/C=C/CNC[C@H]2O[C@@H](n3cnc(C(N)=O)n3)[C@H](O)[C@@H]2O)ccc1O	.	-5	.	.	8	3	6	.
COc1ccc(CNC(=O)c2ccc(-c3cccnc3)c3ccoc23)cc1OC	.	-6	.	.	55*	-1	-22	.
COc1ccc2c(c1)C(NC(C)=O)C(=O)N2C (stereo unspecified)	-9	3	1	i	.	2	5	-10
COC(=O)[C@H](CO)NS(=O)(=O)c1ccc(C)cc1	.	-7	.	.	-17	2	5	.
CC1CCN(S(=O)(=O)c2ccc(C(=O)Nc3nnc(-c4ccccn4)o3)cc2)CC1	3	.	34	i	2	0	8	25
Cc1ccc(NC(=O)CN(C)C(=O)COC(=O)c2nccnc2N)cc1	.	2	.	.	6	-3	0	-9
COc1ccc2c(c1)C1=C(CC2)C(c2ccc(C)cc2)NC(=S)N1 (stereo unspecified)	-4	-20	1	i	14	10	-6	7
CN1C[C@@H]2[C@@H]3C(=O)N(Cc4ccccc4)C(=O)[C@@H]3[C@](Cc3ccccc3)(C1=O)N2C(=O)c1ccccc1	.	9	.	.	13	-2	4	.
COc1cc(C2C(C#N)=C(N)N(c3cccnc3)C3=C2C(=O)CCC3)ccc1O (stereo unspecified)	51*	-16	70*	i	.	-11	3	-2
COC(CNC(=O)c1ccc2c(=O)n(Cc3ccc(Cl)cc3)c(=S)[nH]c2c1)OC	-7	-16	-8	i	-11	4	0	-3
COc1cc(NC(=O)CSc2nccc(=O)[nH]2)c(C)cc1[N+](=O)[O-]	-12	.	0	i	13	1	2	9
C/C(=N\NC(=S)NC1CCCCC1)c1cccc(C(F)(F)F)c1	-8	.	0	i	23	5	-3	2
COc1ccc(CN(C)C(=O)CCN2C(=O)c3ccccc3C2=O)c(OC)c1OC	4	-15	0	i	-3	5	6	-2
Cc1nn(-c2ccccc2)c2sc(C(=O)NNC(=O)COc3cccc4ccccc34)cc12	9	-20	-2	i	-81	-1	4	55
O=C(CSc1ccccn1)C12CC3CC(CC(C3)C1)C2	8	.	-32	i	-7	0	2	44
CC(C)Cc1nc(SCC(=O)N2CCCCC2)c2c(=O)n(C)c(=O)n(C)c2n1	-7	-23	-1	i	-7	-2	-4	-4
COC(=O)c1ccc2nc(C3CCCCC3)c(Cc3ccccc3C(F)(F)F)n2c1	.	0	.	.	37	-5	-3	.
COC(=O)c1cc(S(=O)(=O)N(C)c2ccc(C)c(C)c2)c[nH]1	11	7	6	i	-27	1	-1	-7
Cc1ccc(OCC(=O)N/N=C/c2ccco2)cc1	12	-20	-6	i	.	7	5	13
Cc1ccc(NS(=O)(=O)c2cc(NC(=O)c3ccc4c(c3)NC(=O)CS4)ccc2Cl)c(C)c1	-5	.	-6	i	26	-3	-15	38
Cc1ccc(S(=O)(=O)c2c(C)nn(-c3ccccc3)c2OC(=O)c2ccco2)cc1	-12	.	-13	i	4	0	0	-8
CN(C)/C=C(\C#N)C(=O)N/N=C(\CC(=O)C(F)(F)F)c1ccco1	57	.	39	i	-5	-1	5	-11	eIF4H inh retest=1;PABP polyA inh retest=12
CC(=O)c1ccc(S(=O)(=O)N2CCN(C(=O)c3ccc(-n4nc(C)c(Cl)c4C)cc3)CC2)cc1	.	-9	.	.	.	7	-30	4
CCOc1ccc(NC(=O)c2cccc3c2C(=O)N(Cc2cccnc2)C3)cc1	-7	2	-5	i	.	2	-3	20
O=S(=O)(N/N=C\c1ccc2c(c1)OCO2)c1ccc(Cl)cc1	5	-12	17	i	-4	-6	-2	10
COc1cccc(CNC(=O)N2CCN(c3ccccc3C)CC2)c1	6	-9	2	i	0	6	3	-3
CCN(CC(=O)Nc1ccc(NC(C)=O)cc1)Cc1c(O)ccc2cc(Br)ccc12	-21	-13	1	.	9	1	3	-8
COc1ccc(-c2cc(=O)c3ccccc3o2)cc1	3	-20	-4	i	.	1	0	11
COc1ccc2cc(C(=O)NCCCN3CCCC3=O)[nH]c2c1	-7	-9	-1	i	-19	3	7	-10
CC1CN(C(=O)COC(=O)c2cc(Cl)ccc2Cl)CC(C)O1 (stereo unspecified)	9	-5	-7	i	-2	-1	-1	-4
COc1ccc(CN(C(=O)CSc2nnc(-c3c[nH]c4ccccc34)o2)c2ccc(F)cc2)cc1OC	-2	-13	1	i	-2	-29	-28	66
O=C(COc1ccc2c(c1)oc(=O)c1ccccc12)NCCCN1CCOCC1	5	-15	4	i	3	7	4	-9
COc1cccc2cc(-c3nc4ccccc4o3)c(=O)oc12	-3	-18	-7	i	-51	5	-3	-8
O=C(NCC(=O)N1CCN(c2ccccn2)CC1)c1ccc(Br)o1	-6	-10	6	i	-8	0	3	3
NS(=O)(=O)c1ccc(CCNC(=O)CNS(=O)(=O)c2cccc(Br)c2)cc1	-1	.	9	i	8	1	-1	3
COc1ccc(C2C(C#N)=C(SCC(=O)Nc3ccc(C)cc3)NC3=C2C(=O)CC(C)(C)C3)cc1 (stereo unspecified)	-6	-9	6	i	?	-8	-12	-21
O=c1[nH]n(Cc2ccccc2)c2ccccc12	4	3	5	i	9	0	-3	-15
CCn1c(SCC(=O)Nc2cc(C)on2)nc2c([nH]c3ccccc32)c1=O	-2	-16	-6	i	.	1	3	-8
CCCCCC(=O)Nc1ccc(Cl)cn1	-1	-21	4	i	.	-1	3	.
CN(C)S(=O)(=O)c1ccc(NC(=O)COC(=O)Cn2[nH]c(=O)c3ccccc3c2=O)cc1	-4	-7	-2	i	5	3	3	-7
CCc1nc2c(OCc3ccc(C(F)(F)F)cc3)cccn2c1N(C)C(C)=O	.	-10	.	.	14	-1	1	.
O=C(c1c(F)cccc1F)N(Cc1ccccn1)C1CCCC1	2	-20	-5	i	.	-2	2	-11
CCOc1cc(NC(=S)NCCCN2CCOCC2)c(OCC)cc1NC(=O)c1ccc(OC)cc1	-1	-18	5	i	-4	-2	-1	-12
CC(C)Oc1ccc(C(=O)/C=C2/C(=O)Nc3ccccc32)cc1	-4	.	-7	i	-9	-3	-6	102*

Eleven entries already listed, arranged by number of heavy atoms, falling:
SMILES	eIF4H inh	UUG fidelity	PABP polyA inh	Rce1 inh	HIV Env fusion	MT1-MMP act inh	MT1-MMP act inh RFP	CSC inhib	others
CN1C[C@@H]2[C@@H]3C(=O)N(Cc4ccccc4)C(=O)[C@@H]3[C@](Cc3ccccc3)(C1=O)N2C(=O)c1ccccc1	.	9	.	.	13	-2	4	.
CCOc1cc(NC(=S)NCCCN2CCOCC2)c(OCC)cc1NC(=O)c1ccc(OC)cc1	-1	-18	5	i	-4	-2	-1	-12
COc1ccc(C2C(C#N)=C(SCC(=O)Nc3ccc(C)cc3)NC3=C2C(=O)CC(C)(C)C3)cc1 (stereo unspecified)	-6	-9	6	i	?	-8	-12	-21
CC(=O)c1ccc(S(=O)(=O)N2CCN(C(=O)c3ccc(-n4nc(C)c(Cl)c4C)cc3)CC2)cc1	.	-9	.	.	.	7	-30	4
Cc1nn(-c2ccccc2)c2sc(C(=O)NNC(=O)COc3cccc4ccccc34)cc12	9	-20	-2	i	-81	-1	4	55
CCn1c(SCC(=O)Nc2cc(C)on2)nc2c([nH]c3ccccc32)c1=O	-2	-16	-6	i	.	1	3	-8
Cc1ccc(NC(=O)CN(C)C(=O)COC(=O)c2nccnc2N)cc1	.	2	.	.	6	-3	0	-9
COc1ccc2c(c1)C1=C(CC2)C(c2ccc(C)cc2)NC(=S)N1 (stereo unspecified)	-4	-20	1	i	14	10	-6	7
CC(C)Oc1ccc(C(=O)/C=C2/C(=O)Nc3ccccc32)cc1	-4	.	-7	i	-9	-3	-6	102*
CC1CN(C(=O)COC(=O)c2cc(Cl)ccc2Cl)CC(C)O1 (stereo unspecified)	9	-5	-7	i	-2	-1	-1	-4
COc1ccc(-c2cc(=O)c3ccccc3o2)cc1	3	-20	-4	i	.	1	0	11

Continued.
SMILES	eIF4H inh	UUG fidelity	PABP polyA inh	Rce1 inh	HIV Env fusion	MT1-MMP act inh	MT1-MMP act inh RFP	CSC inhib	others
CN(C1CCCCC1)S(=O)(=O)c1ccc(NC(=O)CCC(=O)O)cc1	-2	-7	12	i	.	2	3	-10
Cc1nn2c(NCc3ccccn3)c3c(nc2c1-c1ccccc1)CCC3	12	-67	-2	i	-1	4	-6	31
CC(OC(=O)CCCc1c[nH]c2ccccc12)C(=O)Nc1ccc(S(N)(=O)=O)cc1 (stereo unspecified)	.	-11	.	i	-11	1	-1	-9
CCn1c(C)nc2cc(C(=O)NNC(=S)Nc3ccc(Cl)cc3Cl)ccc21	-1	-14	4	i	6	3	1	5
Cc1ccc(S(=O)(=O)N/N=C/c2cn(C)nc2C)cc1	3	-25	-4	.	.	1	2	-12
CCCCc1nnc(NC(=O)C2CCCO2)s1 (stereo unspecified)	0	.	6	i	-18	5	1	-3
CCc1nc2sc(C(=O)O)c(N)c2c2c1CCCC2	-14	-15	-5	i	0	3	4	5
NS(=O)(=O)c1cc2c(cc1Cl)NC(Cc1ccccc1)NS2(=O)=O (stereo unspecified)	-9	-1	12	i	-9	-2	4	-4
CC(N)C12CC3CC(CC(C3)C1)C2 (stereo unspecified)	-5&-4	-1	-5&-7	i	4&-11	-4&0	-1&4	-9&7
O=C1c2ccccc2-c2ncnc3c(N4CCOCC4)cc(N4CCOCC4)c1c23	?	14	1	i	10	-1	1	6
O=C(CSc1n[nH]c(-c2ccccn2)n1)Nc1ccccc1	67	-25	8	i	4	2	2	-3	eIF4H inh retest=5;PABP polyA inh retest=8
CC1(C)O[C@H]2CC(=O)OC[C@]23[C@H]2CC[C@@]4(C)[C@H](c5ccoc5)OC(=O)[C@H]5O[C@]54[C@]2(C)[C@@H](O)C[C@@H]13	.	-11	.	.	-25	-4	4	-14
COc1ccc(CN(C)C(=O)/C=C/[C@H]2O[C@@H](n3cnc4c(N)ncnc43)[C@H](O)[C@@H]2O)cc1OC	.	-4	.	.	32	1	3	.
Cc1cccc(CNc2ncnc3ccc(-c4ccc5c(c4)OCCO5)cc23)c1	.	-7	.	.	80*	10	-23	12
COc1ccc(C2=NOC(Cn3nc(C(=O)NCc4ccccc4OC)cc3-c3ccccc3)C2)cc1 (stereo unspecified)	.	-5	.	i	47	3	-9	-4
O=C(Nc1ccc2c(c1)OCCO2)c1cccc(S(=O)(=O)N2CCCCC2)c1	-6	.	-8	i	34	1	-5	-2
Cc1nnc(Oc2ccccc2F)c2ccccc12	0	1	-11	i	-37	-4	-1	-16
